From PubChem
NPYLR7 agonist: activates Aedes aegypti NPYLR7 receptor; HEK293T NPYLR7/Galpha15, GCaMP6s calcium fluorescence; activation, % at 10 µM; actives 0.15% (n = 270,000); AID 1259423; in the data active = activation above about 40%;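 note: 0% = vehicle and 100% = reference agonist at the receptor; some compounds past the cut are filed as inactive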
NPYLR7 agonist max-min: also measured in NPYLR7 agonist; calls as there; activation, %; measured here: Max-Min RFU normalised activation; some inactives read as strong as hits;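 span of the calcium signal over five minutes; 0% = vehicle and 100% = native peptide agonist; compound fluorescence can raise it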
The depositor's hits bear a star; & = joins results of further samples. These rows are one share of the data; count on the stated rates, not on these rows.

SMILES	NPYLR7 agonist	NPYLR7 agonist max-min
CCc1cc(=O)[nH]c(-n2nc(C)cc2NC(=O)c2ccc(-c3ccccc3)cc2)n1	9	4
CC(Cc1ccc(N(C)C)cc1)NS(=O)(=O)N1CCCCCC1 (stereo not drawn)	5	3
CCC(=O)Nc1cccc(C(=O)NCc2nnc(C)o2)c1	-2	-2
CC(=O)c1c(N2CCCCC2)nc(=S)n(-c2ccccc2)c1C	6	5
O=C(COC(=O)CSCc1ccc(F)cc1)NC1CCCC1	3	0
CCn1c(SCc2ccc(C(=O)NCc3ccco3)cc2)nnc1-c1ccc(C)cc1	24	35
CCCCC1=NC2(CCN(C(=O)C(NC(C)=O)C(C)C)CC2)C(=O)N1 (stereo not drawn)	5	2
Cn1cnnc1SCC(=O)Nc1ccccc1[N+](=O)[O-]	-1	-4
CC(C)c1ccc(C2=NC(C)(CC(=O)NC3CC3)ON2C)cc1 (stereo not drawn)	-4	-4
Cc1ccc(-c2nc(OCC(C)C)nn2-c2ccc(NC(=O)C3C[C@H]3c3ccccc3)cc2)cc1 (stereo partly drawn)	18	21
O=C(COCCc1ccccc1)NS(=O)(=O)c1ccc(F)cc1	10	8
Cc1ccsc1-c1cc(C(=O)O)cc(S(=O)(=O)N2CCOCC2)c1	1	-4
Oc1ccc2cc(Br)ccc2c1CN1CCCC1	0	-7
Cc1ccc(Cl)cc1-n1c(C)cn2c3c(=O)n(CCN4CCOCC4)c(=O)n(C)c3nc12	3	1
Cc1cnc2c(c1)NC(=O)CN2C(=O)CCc1ccc(OC(F)F)cc1	6	5
COc1cccc(NC(=O)c2cccnc2Nc2cccc(C(F)(F)F)c2)c1	13	8
COCc1c(C(=O)NCC2(N3CCOCC3)CCCC2)cnn1-c1nccc(-c2cccs2)n1	16	-2
COc1ccccc1-n1cc(-c2ccnc(N(C)Cc3cnccn3)n2)cn1	3	2
Cc1ccccc1-c1ccc(N2CCC(C(=O)N3c4ccccc4CC3C)CC2)nn1 (stereo not drawn)	-8	-10
CN1CCN(C(CC(=O)Nc2cccnc2)C(=O)O)CC1 (stereo not drawn)	19	13
O=C1CC(c2nc3ccccc3n2CCc2ccccc2)CN1c1ccccc1 (stereo not drawn)	2	1
COc1ccc(-n2cc(CNCCc3cccnc3)c(-c3cccc(F)c3)n2)cc1	0	-5
CCOC(=O)C(=O)c1csc(NC(=O)c2ccco2)n1	-12	-16
Cn1c(=O)n(CC=Cc2ccccc2)c(=O)c2c1nc1n2CCCN1Cc1ccccc1	1	10
CC(=O)Nc1cccc(NC(=O)c2ccc(C)c(C)c2)c1C	0	-2
C=CCn1c(N2CCN(Cc3ccc(Cl)cc3)CC2)nc2c1c(=O)[nH]c(=O)n2C	-6	3
CCN(CCn1cccn1)C(=O)[C@H](N)c1ccccc1	-5	-7
CCCCc1ccc(N=Cc2nc(-c3ccc(Cl)cc3)oc2O)cc1	-13	-11
Cc1cccc2sc(NNC(=O)c3cc(=O)c4ccccc4o3)nc12	5	1
Cc1ccc(C)c(Cn2c(=O)c3c(nc4n3CCN4c3cc(C)ccc3C)n(C)c2=O)c1	1	5
Cc1ccsc1-c1cn(CC2(Cn3ccnc3C)CC2)nn1	25	17
CCc1nc2c(OCCc3cccc(OC)c3)cccn2c1N(C=O)Cc1ccc(OC)cc1	0	-3
O=C1OC(/C=C\c2cccc([N+](=O)[O-])c2)=NC/1=C/c1ccco1	-1	-7
O=C(N=Nc1c(O)[nH]c2ccc(F)cc12)c1cccnc1	7	2
CCCc1cc(=O)n2[nH]c(NCc3ccccc3OC)nc2n1	21	16
COc1ccc(OCCSc2ccc(Cl)cc2[N+](=O)[O-])cc1	0	6
CN(C)S(=O)(=O)NC1CCCN(c2ccc(C#N)cc2F)C1 (stereo not drawn)	-2	-3
CC(C)C(CNC(=O)c1ccc2nnnn2c1)N(C)C (stereo not drawn)	-3	-4
CC(C#N)Sc1nnc(Nc2cccc(Br)c2)s1 (stereo not drawn)	1	0
Cc1ccc2c(c1)C1C[N+](C)(C)CCC1N2C(=O)c1ccc(F)cc1 (stereo not drawn)	0	-2
CCOc1ccc2nc(N3CCCN(Cc4ccc5c(c4)OCCO5)CC3)nc(C)c2c1	19	1
Cc1cc(C)c2cc(C(=O)Nc3ccc(N4CCOCC4)cn3)[nH]c2c1	-4	-7
Cc1nc(/C=C/C(=O)N2CCN(CC(F)(F)F)C(C)(C)C2)cs1	0	0
CCCCN1C(=O)c2ccccc2NC12CCN(C(=O)c1cc(C)n(C)n1)CC2	1	6
CCCCCCN=C(NC(=O)c1ccc2c(c1)OCO2)OC(C)C	-5	0
COc1ccc(C(=O)NCCCNC(=O)[C@H]2CCCN2C(=O)c2ccc(Cl)cc2)cc1	19	22
COc1cccc(-c2cc(C(=O)N3CCN(c4ccccc4OC)CC3)nc3cc(C(C)(C)C)nn23)c1	-5&19	3&13
CCc1nc2n(n1)C(=O)C(C(c1cccc(Cl)c1)N1CCC(C(N)=O)CC1)S2 (stereo not drawn)	4	26
C=C(C)Cn1c(C(=O)N2CCN(C(=O)c3ccccc3)C(C)C2)cc2ccsc21 (stereo not drawn)	7	10
CCOC(=O)c1ccc(NC(=O)CSc2nnc(NC(=O)C(CC)CC)s2)cc1	0	-3
O=S(=O)(c1ccc(Cl)c(NC(=S)Nc2ccc3c(c2)OCO3)c1)N1CCOCC1	6	3
CCOC(=O)c1nc(NCc2ccco2)nc(N)c1[N+](=O)[O-]	15	10
O=C(c1cccc2ccccc12)N1CCN(C(c2ccccc2)c2ccc(F)cc2)CC1 (stereo not drawn)	13	-1
Cc1nc(N2CCCCC2)ncc1-c1cc(=O)[nH]c(N2CCN(c3ccccc3)CC2)n1	-2	-3
CCC/C(=N\Nc1ccc(Cl)cc1)c1cnnc(SC)n1	-7	22
Cc1c(C(=O)OC(C)C(N)=O)oc2ccc(Cl)cc12 (stereo not drawn)	3	-1
CCC1CCC2(CC1)NC(=O)N(CC(=O)N1CCC(c3c[nH]c4ccccc34)CC1)C2=O (stereo not drawn)	-3	1
Cc1c(-c2cc(C(=O)N3C[C@@H]4[C@H](C3)[C@H]3CC[C@@H]4O3)no2)cnn1C	5	2
CCn1cc(CN2CCC(CNC(=O)c3cccc(O)c3)C2)c(C)n1 (stereo not drawn)	8	3
Cc1c(C(=O)OC2CCCCCCC2)[nH]c2c1C(=O)CCC2	-6	-3

Compounds above that have a COOH group (2):
SMILES	NPYLR7 agonist	NPYLR7 agonist max-min
Cc1ccsc1-c1cc(C(=O)O)cc(S(=O)(=O)N2CCOCC2)c1	1	-4
CN1CCN(C(CC(=O)Nc2cccnc2)C(=O)O)CC1 (stereo not drawn)	19	13

Later entries:
SMILES	NPYLR7 agonist	NPYLR7 agonist max-min
O=C1CC(NCCC2=CCCCC2)C(=O)N1c1ccc(-c2nc3ccccc3o2)cc1 (stereo not drawn)	-12	-13
O=C(NC1CC1)c1cc2n(n1)CCN(Cc1cccc(Cl)c1)C2=O	9	22
CSc1ccc(NC(=O)c2ccc3c(c2)NC(=O)CCS3)cc1	-1	-3
COc1ccc(-c2ccc3c(c2)COC2(CCN(C(=O)c4cc(F)ccc4C)CC2)O3)c(OC)c1	2	-7
Cc1c(C(=O)NCCC(c2ccccc2)c2ccccc2)cc(-c2ccc(Cl)cc2)n1-c1ccc2c(c1)OCO2	16	13
CC(C)C(Cn1ccnc1)NC(=O)C1(c2ccccc2F)CC1 (stereo not drawn)	-6	-6
Cc1cc(C(=O)N2CCN(Cc3ccc(-c4noc(-c5cccs5)n4)cc3)CC2)no1	-3	2
CC(C)OCCCNC(=O)c1ccc(-c2ccc(F)c(F)c2)s1	-3	1
COc1cccc(-c2ccc3c(c2)N(Cc2ccc(F)cc2)C(=O)C(C)S3)c1 (stereo not drawn)	8	5
O=C(O)C1(Cc2ccc(F)cc2)CCCN(CC2CC2)C1 (stereo not drawn)	11	7
CC(C)C1CN(C(=O)NCc2cccc(-n3cncn3)c2)CCS1 (stereo not drawn)	-21	-25
O=C(NC1CCCCC1)N1CCN(C(=O)c2cc(-c3ccccc3)nc3ccccc23)CC1	-8	-15
COc1ccc(CCN(Cc2ccc(C)o2)C(=O)CN(C(=O)c2ccc(F)cc2)C2CC2)cc1OC	0	-1
CCc1cnc(C)nc1-c1cnc2ccccc2c1	13	8
Cc1ccc(C(C)C)c(OCC(=O)NNC(=O)c2ccc[nH]c2=O)c1	0	1
CCCS(=O)(=O)Nc1ccc(N(C)C)c(CN(C(=O)C(CC)c2ccccc2)C2CC2)c1 (stereo not drawn)	15	19
CCCCC/C=C\CC(O)/C=C/c1cccc(CC(O)CCCCO)n1 (stereo not drawn)	4	39
CCOC(=O)C1CCCCN1CC(=O)N1N=C(c2ccccc2OC)CC1c1cccc(F)c1 (stereo not drawn)	-3	5
CC(=O)c1c[nH]c(C(=O)NCCc2nc(C(C)(C)C)cs2)c1	0	2
CCc1nc2c(OCc3ccccc3)cccn2c1N(CC(=O)N(C)C)C(C)=O	-5	2
CCc1cc(CN(C)Cc2ccc(S(C)(=O)=O)cc2)on1	15	11
N#Cc1cc(NC(=O)c2ccccc2)c(=O)n2c(-c3ccccc3)csc12	-1	-5
CN(C)c1ccc(C2=NOCC(=O)N2Cc2cccc(F)c2)cc1	7	4
O=C(CSc1nnc(-c2cccs2)o1)N(C1CCCCC1)C1CCS(=O)(=O)C1 (stereo not drawn)	3	1
CC(C)c1noc(CCNC(=O)c2ccccc2C2CCNC2)n1 (stereo not drawn)	-5	-8
CCc1nc2c(OCc3ccc4c(c3)OCO4)cccn2c1N(C)C(=O)c1ccc(OC)cc1	-5	-8
Cc1nn(C(=O)c2cccnc2)c(C)c1Sc1ccc(Cl)cc1	3	9
CC[C@H](C)[C@H]1O[C@]2(CC[C@@H]1C)C[C@@H]1C[C@@H](C/C=C(\C)[C@@H](O[C@H]3C[C@H](OC)[C@@H](O[C@H]4C[C@H](OC)[C@@H](O)[C@H](C)O4)[C@H](C)O3)[C@@H](C)/C=C/C=C3\CO[C@@H]4[C@H](O)C(C)=C[C@@H](C(=O)O1)[C@]34O)O2	-3	-6
COc1cc(NC(=O)CC2CCC(=O)N2)ccc1NC(=O)C(C)(C)C (stereo not drawn)	3	0
CCN(CC)C(=O)/C(=C\c1ccc(OS(=O)(=O)c2ccc(C)cc2)cc1)NC(=O)c1ccccc1	-4	-2
Cc1[nH]n(-c2ccccc2)c(=O)c1C(=O)c1ccc(S(=O)(=O)N(C)C)cc1	10	1
O=C(O)c1ccc2c(c1)C1C=CCC1C(c1ccc(Br)cc1)N2 (stereo not drawn)	-7	-8
COc1ccc(Cc2nc(CN3CCCCCCC3)cs2)cc1	10	11
CCn1c(C2CCCN(Cc3c(Cl)cncc3Cl)C2)nn(C)c1=O (stereo not drawn)	1	4
C=CCNC(=O)c1nnc2n(c1=O)CCN2c1ccc(OCC)cc1	10	5
COc1c[nH]c(C(=O)N2CCOC(C(F)(F)F)C2)cc1=O (stereo not drawn)	2	-2
O=C(c1ccc(-c2ccccc2)c(F)c1)C1CCCN(Cc2c[nH]c(=O)[nH]c2=O)C1 (stereo not drawn)	14	2
Fc1ccc(C(c2ccccc2)N2CCC(CN3CCOCC3)CC2)cc1 (stereo not drawn)	1	-3
CCNC(=S)NN=C1CCC(C(C)(C)C)CC1 (stereo not drawn)	4	3
CCn1c(N2CCN(CCCc3ccccc3)CC2)nc2c1c(=O)[nH]c(=O)n2C	-7	-9
CCOC(=O)C1CCN(C(=O)c2ccc(S(=O)(=O)N(CC)CC)cc2)CC1	-2	-3
O=C(NC1CC1)C1CCN(C2CCN(C(=O)/C=C/c3cccc(F)c3F)CC2)CC1	6	11
O=C(NCc1ccccc1CN1CCCCC1)c1cc2c(cc1[N+](=O)[O-])OCO2	-2	-2
CCc1n[nH]c(=S)n1N=Cc1ccc2c(c1)OCO2	23	10
CC(=O)OC[C@@H]1CN(Cc2cccc(C(F)(F)F)c2)C[C@H](n2cnc3c(NC4CC4)ncnc32)O1	1	-3

Retrieved by compound from above (seven):
SMILES	NPYLR7 agonist	NPYLR7 agonist max-min
CCn1cc(CN2CCC(CNC(=O)c3cccc(O)c3)C2)c(C)n1 (stereo not drawn)	8	3
Cc1nc(N2CCCCC2)ncc1-c1cc(=O)[nH]c(N2CCN(c3ccccc3)CC2)n1	-2	-3
CCC1CCC2(CC1)NC(=O)N(CC(=O)N1CCC(c3c[nH]c4ccccc34)CC1)C2=O (stereo not drawn)	-3	1
CCCCN1C(=O)c2ccccc2NC12CCN(C(=O)c1cc(C)n(C)n1)CC2	1	6
CC(=O)c1c[nH]c(C(=O)NCCc2nc(C(C)(C)C)cs2)c1	0	2
Cc1ccc(C)c(Cn2c(=O)c3c(nc4n3CCN4c3cc(C)ccc3C)n(C)c2=O)c1	1	5
O=C(NCc1ccccc1CN1CCCCC1)c1cc2c(cc1[N+](=O)[O-])OCO2	-2	-2

The list continues:
SMILES	NPYLR7 agonist	NPYLR7 agonist max-min
N#Cc1cccc(NC(=O)Cn2cnc3cc(-c4ccccc4)sc3c2=O)c1	2	-2
CC(C)Nc1ncccc1C(=O)NCCC1=CCCCC1	-10	-16
Cc1ccsc1S(=O)(=O)N[C@@H]1C[C@@H](CO)N(C)C1	7	5
CNC(=O)c1nc(CN2CCCC(N(C)CCc3ccccc3)C2)no1 (stereo not drawn)	8	8
O=[N+]([O-])c1ccccc1S(=O)(=O)NSc1nc2ccccc2s1	-3	-7
Cc1ccc(C(=O)N=Nc2c(O)[nH]c3ccc(F)cc23)cc1	-2	8
